# MT1-MMP act inh = inhibitors of human MT1-MMP activation. AID 651647. HT1080 RFP-PRO-GFP cells, GFP/RFP ratio fluorescence, overnight; percent of plate control window, DMSO zero. GFP/RFP ratio change, % at 20 µM. P50281. hit rate 0.061% among 360,000;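 active = GFP/RFP ratio change of at least 30% with cell ATP level not reduced by more than half and red fluorescence within 50% of control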; also: strong numbers were not always called active
#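 Material: RFP-PRO-GFP reporter HT1080 cells. Dosing: single-point 20 µM compound, 1% DMSO. Controls: DMSO and RFP-L50D-GFP cell wells. Timing: cells overnight before dosing, compound overnight, 37 °C, 5% CO2. Measure: GFP/RFP fluorescence ratio.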
# Yeast UUG start = alters start codon recognition fidelity in yeast | activity score, % at 18.7 µM | hit rate 0.13% among 350,000 | S. cerevisiae UUG-firefly luciferase reporter, luminescence/redox ratio;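 active = replicate mean at a twofold rise or more, about +100% in these data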;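 also: firefly luciferase made from a UUG start codon reports start codon fidelity; reporter light over untreated wells divided by growth signal over untreated wells; some hits fall short of that in this replicate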
# HIV Env fusion = inhibitors of HIV Env-mediated cell fusion; HeLa-JRFL Env/CEM21 cell fusion, luciferase; inhibition, % at 12.3 µM; hit rate 1.1% among 360,000;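 active = mean replicate inhibition score of at least 50 and every replicate individually at or above 50; inconclusive = only one of the two criteria met; inactive = mean below 50 and not all replicates reaching 50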;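 also: 0% = plate neutral controls and 100% = maraviroc near 300 nM; one replicate is shown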
# CSC inhib = cancer stem cell inhibition; cancer stem cell-like cells viability, luminescence; inhibition, % at 7.5 µM; hit rate 1.1% among 300,000; AID 2717;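 active = mean at 75% or more and at least half the replicates too; inconclusive = mean and replicates disagree; tested in HMLE shEcad cells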;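 also: 0% = median of negative and 100% = median of positive control wells; the first replicate is given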
# PABP FP inh = blocks human PABP binding to poly(A) RNA | hit rate 1% among 290,000 | fluorescence polarization | AID 2014 | inhibition, % at 35 µM;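 active = 50% or more with normal probe brightness, or confirmed in later tests; inconclusive = above 50% with abnormal brightness, or retests that disagree; inactive = below 50% or failed in later tests; about a fifth of its hits are not listed in these tables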;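 also: calls also rest on retests at 20 µM and on dose response follow-up; controls were probe without protein and protein plus probe with vehicle; some compounds called inactive have numbers as strong as hits; many hits fall short of the cut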
# Target sequence (P11940 whole entry, looked up): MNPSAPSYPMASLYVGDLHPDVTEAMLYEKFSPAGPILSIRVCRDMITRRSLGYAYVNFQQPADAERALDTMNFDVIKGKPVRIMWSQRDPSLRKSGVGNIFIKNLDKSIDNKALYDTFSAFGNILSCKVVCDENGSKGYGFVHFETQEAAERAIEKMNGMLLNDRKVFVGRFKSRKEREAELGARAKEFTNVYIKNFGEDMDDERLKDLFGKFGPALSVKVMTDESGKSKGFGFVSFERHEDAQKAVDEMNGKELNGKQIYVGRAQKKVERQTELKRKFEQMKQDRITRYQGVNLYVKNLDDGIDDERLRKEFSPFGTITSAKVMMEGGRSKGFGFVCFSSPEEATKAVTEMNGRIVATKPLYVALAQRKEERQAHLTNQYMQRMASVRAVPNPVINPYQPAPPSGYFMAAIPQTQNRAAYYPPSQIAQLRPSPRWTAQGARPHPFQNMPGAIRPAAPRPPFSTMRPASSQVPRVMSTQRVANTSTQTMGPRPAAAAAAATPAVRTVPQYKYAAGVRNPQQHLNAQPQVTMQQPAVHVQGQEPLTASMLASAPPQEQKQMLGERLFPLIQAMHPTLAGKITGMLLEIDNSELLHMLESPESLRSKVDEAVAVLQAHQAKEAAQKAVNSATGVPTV
# eIF4H inh = inhibitors of RNA binding by human eIF4H. Q15056. inhibition, % at 35 µM. hit rate 0.94% among 290,000. AID 2012. eIF4H fluorescence polarization binding assay;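 active = 50% or more with normal probe brightness, or confirmed in later tests; inconclusive = above 50% with abnormal brightness, or retests that disagree; inactive = below 50% or failed in later tests; about a fifth of its hits are not listed in these tables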;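 also: calls also rest on retests at 20 µM and on dose response follow-up; 0% = protein and probe with vehicle and 100% = probe without protein; strong numbers were not always called active; many hits fall short of the cut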
# Rce1 inh = inhibitors of yeast Ras-converting enzyme; yeast membranes, quenched prenylated peptide cleavage fluorescence; calls only; hit rate 0.27% among 290,000; Q03530; AID 2563;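 active = fall in fluorescence gain of 50% or more versus controls, with final raw signal at or below 3038400; inconclusive = same 50% fall but final raw signal above 3038400; inactive = fall in fluorescence gain under 50%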;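 also: plate controls were neutral control wells for no effect and wells lacking membranes for full effect; tested at 10 µM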
# Target sequence (Q03530 whole entry, looked up): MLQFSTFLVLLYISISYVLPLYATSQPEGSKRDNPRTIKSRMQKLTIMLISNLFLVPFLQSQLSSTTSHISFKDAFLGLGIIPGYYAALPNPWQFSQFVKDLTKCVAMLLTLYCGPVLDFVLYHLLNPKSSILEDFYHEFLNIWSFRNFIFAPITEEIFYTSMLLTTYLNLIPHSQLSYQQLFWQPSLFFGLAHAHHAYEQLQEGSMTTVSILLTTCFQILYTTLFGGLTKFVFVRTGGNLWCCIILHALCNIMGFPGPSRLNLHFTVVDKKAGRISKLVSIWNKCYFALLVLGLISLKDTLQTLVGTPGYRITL
# eIF4H inh retest = further read-out of eIF4H inh, marked with its call; inhibition, %; compound at 20 µM; confirmation average;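 mean of two retest wells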
# PABP FP inh retest = further read-out of PABP FP inh, marked with its call; inhibition, %; compound at 20 µM; confirmation repeats;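 mean of two retest wells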
# MT1-MMP act inh RFP = further read-out of MT1-MMP act inh, marked with its call; RFP signal change, %; measured here: RFP expression control read;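 0 = vehicle wells; hits needed this value within 50% of zero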
# * = called active by the depositor; i = inactive; ? = inconclusive; nt = no result given; & = joins results of further samples; [ ] = remark or other dose.
SMILES,MT1-MMP act inh,MT1-MMP act inh RFP,Yeast UUG start,HIV Env fusion,CSC inhib,PABP FP inh,eIF4H inh,Rce1 inh,others
C[C@H](CO)N1C[C@H](C)[C@@H](CN(C)S(=O)(=O)c2ccc(F)cc2)Oc2ccc(NC(=O)Nc3ccccc3)cc2C1=O,8,-1,-1&2,0[16.7 µM],-22,nt,nt,nt,
CCOC(=O)N1CCC(NCCNC(=O)c2ccco2)CC1,3,2,-11,-6,-7,12,5,i,
Oc1[nH]c2ccccc2c1C1=NCCCC1,4,1,-17,nt,-17,-2,6,i,
CCOc1ccc(CCNC(=O)c2ccc(N3CCCC3=O)cc2)cc1OCC,4,-4,nt,-28,-5,-4,-4,i,
Cc1c(NC(=O)COC(=O)c2cc(-c3ccc(-c4ccccc4)cc3)nc3ccccc23)c(=O)n(-c2ccccc2)n1C,-4,-4,nt,-44,51,-4,4,i,
COc1ccc(C(O)Cn2cc([N+](=O)[O-])nc2C)cc1 (stereo not drawn),4,0,2,7,-9,12,3,i,
O=C(Cn1ccc([N+](=O)[O-])n1)Nc1nc2ccccc2s1,-3,2,nt,-38,-12,10,0,i,
COc1cc(C(=O)N2c3ccccc3CC2C)cc(OC)c1OC (stereo not drawn),-2,1,-1,nt,-13,4,-2,i,
O=C(COc1ccccc1Br)c1ccc2c(c1)OCO2,3,1,-2,-2,8,nt,nt,i,
CN(C(=O)CSc1cn(CC(=O)N2CCOCC2)c2ccccc12)c1ccccc1,-1,1,24,1,-5,nt,nt,i,
CC[C@]12c3[nH]c4ccc(Cl)cc4c3CCN1C(=O)[C@@H](CC(=O)NCCCOC)C[C@@H]2C(=O)N1CCN(C(=O)C2CC2)CC1,2,7,7,11,nt,nt,nt,nt,
COc1ccccc1NC(=S)NC1CCCCC1,-2,0,-14,3,-15,-10,5,i,
O=C(NC(=S)Nc1ccccc1N1CCCCC1)c1cccs1,-3,-4,nt,-19,63,0,8,i,
Cc1nc2scc(-c3ccc(C(C)C)cc3)c2c(=O)n1N,3,-1,nt,2,12,-3,2,i,
CCCCNC(=O)C1CCN(C/C(C)=C/c2ccccc2)CC1,-2,-3,-12,-72,9,-5,1,i,
CCOC(=O)C1=CCN(S(=O)(=O)c2ccccc2)C1c1ccc(C)cc1 (stereo not drawn),1,-1,-10,-20,nt,nt,nt,nt,
COc1ccc(-c2nnn(CC(=O)N(CC(=O)NC3CCCC3)Cc3cccs3)n2)cc1OC,-2,-5,nt,36,4,2,-5,i,
Cc1cc(C)c(NC(=O)Cn2c(=O)n(Cc3ccco3)c(=O)c3ccccc32)c(C)c1,3,-3,-4,nt,0,-1,1,i,
CCCCn1c(N)c(N(Cc2ccccc2OC)C(=O)CN2C(=O)NC3(CCCC3)C2=O)c(=O)[nH]c1=O,1,2,-10,1,2,nt,nt,nt,
COc1ccc(C(C)=O)cc1Cn1nnc(-c2ccccc2Br)n1,1,0,7,-10,-9,1,-6,i,
CCOC(=O)c1c(C)[nH]c(C)c1C(=O)COC(=O)CNC(=O)C1CCCCC1,4,5,nt,-7,-6,7,13,i,
O=C(Nc1cccc(Br)c1)c1ccc2snnc2c1,4,-4,-23,-18,12,-6,-2,i,
Cc1c(C)c2c(OCC(=O)N3CCC(C(N)=O)CC3)cc3c(c2oc1=O)CCC(C)(C)O3,10,7,1,nt,12,-3,3,i,
C/C(=N\NC(=O)c1ccccc1O)c1cccs1,-2,-5,-43,7,21,-11,36,i,
CCN1CCN(c2ccc(S(=O)(=O)N3CCCCC3)cc2NC(=O)COc2ccccc2)CC1,7,-8,-7,-5,-6,nt,nt,i,
COc1ccc2c(c1)CCc1c(C(=O)Nc3cc(C)n(Cc4ccc(Cl)cc4)n3)noc1-2,5,-1,-10,9,19,-11,0,i,
CS(=O)(=O)c1cccc(C(=O)Nc2ccc(S(=O)(=O)N3CCCCC3)cc2)c1,-2,-9,40,-5,nt,nt,nt,nt,
CC(C)(C)[C@H]1COC(=O)[C@H](NC(=O)OCC2c3ccccc3-c3ccccc32)C/C=C\C[C@@H](CC(=O)N[C@@H](CO)Cc2ccccc2)C(=O)N1,0,1,0,-1,nt,nt,nt,nt,
COc1ccccc1Nc1nccc(N(C)C)c1C#N,-3,-1,-32,-2,-7,-2,6,i,
CCCCn1c(=N)c(S(=O)(=O)c2ccc(Br)cc2)cc2c(=O)n3cccc(C)c3nc21,1,-8,-30,4,-1,9,15,i,
Cc1cc(C(=O)COC(=O)c2ccc(O)cc2)c(C)n1-c1ccccc1F,5,-1,nt,-47,nt,-21,-2,i,
Cc1ccc2sc(N(CCCN(C)C)C(=O)CCS(=O)(=O)c3ccccc3)nc2c1C,-10,-4,5,1,56,11,-2,i,
CN(C(=O)Cc1csc(-c2ccccc2)n1)c1c(N)n(Cc2ccccc2)c(=O)[nH]c1=O,-4,2,-4,5,-8,nt,nt,i,
COc1ccc(Cl)cc1C(=O)Nc1cc(=O)n(C)c(=O)n1C,-1,2,-2,-1,-12,9,5,i,
O=C(c1ccccc1)N1CCC(O)(c2cccnc2)CC1,2,7,-13,-24,16,2,-2,nt,
Cc1cccc(-c2cc(C(=O)Nc3cccnc3)c3ccccc3n2)c1,-7,-5,-10,-102,-11,-14,-9,nt,
N=c1sccn1CC(=O)NCc1ccc(Cl)cc1Cl,0,4,nt,11,5,3,2,i,
O=C(Oc1cc(=O)oc2c1c(=O)n1c3c(cccc23)CC1)c1ccccc1,5,1,nt,8,-6,46,29,i,
Cc1cccc(NC(=O)c2ccc3c(c2)OCCO3)c1,-1,0,-56,-82,nt,-4,-9,i,
CCOC(=O)c1sc2nc(C)nc(Nc3ccc(OC)cc3)c2c1C,2,1,nt,4,-7,-1,-6,i,
O=C(O)c1cccc(-n2cc(-c3cccc(C(F)(F)F)c3)cn2)c1,0,2,nt,-58,10,2,-6,i,
NC(=O)CSc1nnc(NC(=O)c2ccc(Br)o2)s1,0,3,-6,-8,-7,nt,nt,i,
CC(C)C(NC(=O)c1ccccc1)C(=O)N1CCCCCC1 (stereo not drawn),1,3,-10,0,-10,1,0,i,
O=[N+]([O-])c1ccc(Cl)cc1Sc1nc2ccccc2o1,0,-2,9,nt,22,-8,-4,i,
CC(C)(C)c1nn2cnnc2n(/N=C/c2ccccc2)c1=O,-2,-1,nt,22,-14,?,6,i,
CCOC(=O)COc1ccccc1/C=N/O,1,4,-19,-77,4,-5,0,i,
CN(Cc1cccnc1)Cc1c(C(=O)N2CCc3ccccc3C2)nc2ccc(Cl)cn12,-2,3,nt,4,-15,37*,80,i,eIF4H inh retest=36;PABP FP inh retest=65*
Cc1cc(C)n(-c2ccc(C(=O)OCC(=O)Nc3ccc(S(=O)(=O)N4CCCCC4)cc3)cc2)n1,5,4,-16,nt,-5,-7,2,i,
O=C(NCCc1ccc(Cl)cc1)c1cc(-c2ccncc2)nc2ccccc12,2,-8,-21,3,20,-6,-14,i,
Cc1nc(S(=O)(=O)NC2CCCCC2)c(C#N)c(C)c1Cl,-2,-1,13,nt,7,4,-10,i,
COc1cccc(CNC(=O)CCC2CCCN(C(=O)c3ccc(OC)c(F)c3)C2)c1 (stereo not drawn),3,0,-15,-1,-4,-6,-4,i,
O=C1CC(=C2c3ccccc3-c3ccccc32)C(=O)N1CCCCN1CCN(c2ccccc2)CC1,2,-1,-9,nt,nt,6,-6,i,
Cc1ccc(CNC(=O)CN2C(=O)CSc3ccc(S(=O)(=O)N4CCC(C)CC4)cc32)cc1,-2,-3,-1,4,-15,nt,nt,i,
O=C(COc1ccc(-c2nnco2)cc1)NCc1ccccc1Cl,-2,1,nt,nt,-8,-6,-1,i,
CC(C)(C)c1c(Cl)c(O)c(-c2ccccc2)c(=O)n1-c1ccccc1,-2,3,nt,-11,nt,6,-13,i,
CC(C)CNC(=O)C1(C)CCCCCN1C(=O)c1cc2ccccc2s1 (stereo not drawn),-5,-4,1,7,nt,nt,nt,nt,
Cn1ccnc1SCC(=O)NC12CC3CC(CC(C3)C1)C2,-2,2,nt,nt,-6,4,-2,i,
CCOC(=O)c1csc(NC(=O)c2cc3ccccc3o2)n1,-30,-24,-27,0,-7,0,1,nt,
Cc1nnc(SCC2=C(C(=O)O)N3C(=O)C(NC(=O)c4cc(F)c(F)cc4Cl)C3SC2)s1 (stereo not drawn),-3,-1,-4,11,-3,-2,20,i,
CC(C)C(=O)N1CCCC1(C)C(=O)Nc1ccc(-n2cncn2)cc1 (stereo not drawn),-6,4,-20,-21,nt,nt,nt,nt,

# Going on with the list:
SMILES,MT1-MMP act inh,MT1-MMP act inh RFP,Yeast UUG start,HIV Env fusion,CSC inhib,PABP FP inh,eIF4H inh,Rce1 inh,others
COc1ccc(-c2coc3cc(O)ccc3c2=O)cc1O,-2,6,-37,nt,-11,-2,23,nt,
Cc1cc(=O)oc(C)c1C(=O)NCc1ccccn1,-3,-1,nt,10,-6,10,3,i,
Cc1cc(C(=O)Nn2c(C)nc3ccccc3c2=O)ccc1[N+](=O)[O-],0,2,nt,-4,nt,3,7,i,
COc1ccc(CCNS(=O)(=O)c2ccc([N+](=O)[O-])cc2)cc1OC,0,2,-5,11,-8,-3,-2,i,

# Reprinted from the listing for reference:
SMILES,MT1-MMP act inh,MT1-MMP act inh RFP,Yeast UUG start,HIV Env fusion,CSC inhib,PABP FP inh,eIF4H inh,Rce1 inh,others
O=C1CC(=C2c3ccccc3-c3ccccc32)C(=O)N1CCCCN1CCN(c2ccccc2)CC1,2,-1,-9,nt,nt,6,-6,i,
Cc1ccc(CNC(=O)CN2C(=O)CSc3ccc(S(=O)(=O)N4CCC(C)CC4)cc32)cc1,-2,-3,-1,4,-15,nt,nt,i,
O=C(COc1ccc(-c2nnco2)cc1)NCc1ccccc1Cl,-2,1,nt,nt,-8,-6,-1,i,
CC(C)(C)c1c(Cl)c(O)c(-c2ccccc2)c(=O)n1-c1ccccc1,-2,3,nt,-11,nt,6,-13,i,
CC(C)CNC(=O)C1(C)CCCCCN1C(=O)c1cc2ccccc2s1 (stereo not drawn),-5,-4,1,7,nt,nt,nt,nt,
Cn1ccnc1SCC(=O)NC12CC3CC(CC(C3)C1)C2,-2,2,nt,nt,-6,4,-2,i,
CCOC(=O)c1csc(NC(=O)c2cc3ccccc3o2)n1,-30,-24,-27,0,-7,0,1,nt,
Cc1nnc(SCC2=C(C(=O)O)N3C(=O)C(NC(=O)c4cc(F)c(F)cc4Cl)C3SC2)s1 (stereo not drawn),-3,-1,-4,11,-3,-2,20,i,
CC(C)C(=O)N1CCCC1(C)C(=O)Nc1ccc(-n2cncn2)cc1 (stereo not drawn),-6,4,-20,-21,nt,nt,nt,nt,
COc1ccc(-c2coc3cc(O)ccc3c2=O)cc1O,-2,6,-37,nt,-11,-2,23,nt,
Cc1cc(=O)oc(C)c1C(=O)NCc1ccccn1,-3,-1,nt,10,-6,10,3,i,
Cc1cc(C(=O)Nn2c(C)nc3ccccc3c2=O)ccc1[N+](=O)[O-],0,2,nt,-4,nt,3,7,i,
COc1ccc(CCNS(=O)(=O)c2ccc([N+](=O)[O-])cc2)cc1OC,0,2,-5,11,-8,-3,-2,i,

# Screens deposited in PubChem by several laboratories.
